Source: PubChem BioAssay (National Center for Advancing Translational Sciences (NCATS))
miR-21 FLuc = miR-21 reporter, rising signal. 340,000 tested, under 10 active. HeLa miR-21 FLuc reporter, luciferase, 48 h. AID 2288. Potency, µM (series often up to 38.3 µM), for the others: at the top dose reporter change, positive = more light; active = well fitted rising curve with a large enough effect; inconclusive = small, poorly fitted or top-dose-only effect; inactive = no such curve, though single readings can be large or run the other way;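 also: % of control where 0% means no effect; miR-21 action dims this reporter so a rising signal means less miR-21 action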
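Using DMEM plus 10% FBS, HeLa miR-21-FLuc cells are incubated with test compounds (final up to about 40uM) for 48 hours; firefly luciferase signal is then imaged following reagent-mediated lysis.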
Rango dissoc inh = prevents RanGTP from dissociating the Rango-importin beta complex; Biochemical FRET Rango-importin beta, RanGTP-induced dissociation; O95149+P62826; Potency, µM (top dose mostly 46.1 µM), for the others: top-dose activity change, negative = inhibition; AID 540253; actives 0.071% (n = 340,000); active means falling FRET ratio curve, often poorly fitted, with flat reads before Ran was added; inconclusive means other falling curves, or compound fluorescence or quenching; inactive means flat or rising ratio curve;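 also: potency is read from the fitted curve at half-maximal effect; % of control where 0% means no effect; nearly all actives have a fitted effect of over 45% in size; -100% = wells without RanGTP and RCC1; the record marks most hits as doubtful in a second field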
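Two FRET readings bracket the reaction: one 5 min after compound meets Rango–importin beta, another 45 min after RanGTP-RCC1 (0.6 uM Ran, 0.2 uM RCC1, 2 mM GTP) is added. Only the second defines inhibition.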
Rango complex inh = prevents formation of the Rango-importin beta complex. Rango CFP/YFP FRET sensor + importin beta, 45 min. Potency, µM (titrated, usually from 92.2 µM), for the others: at the top dose inhibition of complex formation. actives 0.031% (n = 340,000); active = rising FRET ratio curve, often small or poorly fitted; inconclusive = mostly compound fluorescence or quenching in the first reads; inactive = flat curves in all reads;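 also: potency is read from the fitted curve at half-maximal effect; 0% = DMSO wells and 100% = buffer wells lacking importin beta; nearly all actives have a fitted effect of over 15% in size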
Target sequence (Q14974 whole entry, looked up): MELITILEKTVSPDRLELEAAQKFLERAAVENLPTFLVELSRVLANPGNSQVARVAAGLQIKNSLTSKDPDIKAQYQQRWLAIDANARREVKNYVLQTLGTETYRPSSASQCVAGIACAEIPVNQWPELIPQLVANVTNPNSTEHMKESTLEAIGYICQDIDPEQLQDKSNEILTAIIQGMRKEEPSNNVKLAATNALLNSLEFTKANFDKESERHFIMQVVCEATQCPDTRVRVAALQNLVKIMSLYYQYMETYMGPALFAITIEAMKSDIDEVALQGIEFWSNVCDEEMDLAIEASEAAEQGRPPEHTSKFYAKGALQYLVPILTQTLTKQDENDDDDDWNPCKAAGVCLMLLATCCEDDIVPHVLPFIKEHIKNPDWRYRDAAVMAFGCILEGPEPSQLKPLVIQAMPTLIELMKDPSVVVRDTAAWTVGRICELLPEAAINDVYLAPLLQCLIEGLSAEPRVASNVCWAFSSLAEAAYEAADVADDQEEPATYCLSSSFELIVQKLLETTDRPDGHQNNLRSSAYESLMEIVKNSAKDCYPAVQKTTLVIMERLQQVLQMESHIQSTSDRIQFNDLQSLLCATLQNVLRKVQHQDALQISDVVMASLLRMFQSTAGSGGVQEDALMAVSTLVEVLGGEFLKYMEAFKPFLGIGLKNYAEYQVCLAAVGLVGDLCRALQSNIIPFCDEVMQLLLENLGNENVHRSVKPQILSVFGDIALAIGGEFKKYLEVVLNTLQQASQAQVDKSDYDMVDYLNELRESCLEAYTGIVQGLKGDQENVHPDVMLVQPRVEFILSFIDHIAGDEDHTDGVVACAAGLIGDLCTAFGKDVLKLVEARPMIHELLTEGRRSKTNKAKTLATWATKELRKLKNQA
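Inhibition scored from the CFP 486 nm/YFP 530 nm FRET ratio 45 min after adding 0.125 microM importin beta to 50 nM Rango biosensor preincubated 5 min with compound (room temperature, PBS with DTT, Tween-20, BSA). No-importin wells as positive control.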
GLA inh pH 4.5 = blocks human alpha-galactosidase A at pH 4.5 | P06280 | purified enzyme, 4-MU-alpha-Gal fluorescence, pH 4.5 | activity change, negative = inhibition, % at 105 µM | 230,000 tested, under 10 active | AID 1467; inconclusive = small, poorly fitted or top-dose-only inhibition, or a rising curve; inactive = flat fitted curve, though single readings scatter; no compound was filed as active;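 also: 0% = full activity with enzyme and -100% = basal without enzyme; dose as in the result columns while the protocol names 77 µM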
* = called active by the depositor; ? = inconclusive; . = not tested or not shown; & = joins results of further samples. The list is partial, so the mix of outcomes need not match the whole.

Every second line gives: miR-21 FLuc	Rango dissoc inh	Rango complex inh	GLA inh pH 4.5
> O=C(O)c1nc(NCc2ccccc2)ncc1Cl
    2.1%	5.0%	0.0%	.
> O=C1CCCC(=O)N1c1ccc(Oc2ccc(Cl)cc2)cc1
    -16.4%	-2.2%	8.4%	-1.4
> CN(C)CCCN(C(=O)c1ccc2c(c1)CCCC2)c1nc2c(F)cccc2s1
    -35.4%	-5.4%	-1.3%	7.0
> CCOC(=O)C1CCN(C(=O)c2cc3c(-c4ccc(OC)c(OC)c4)nn(C)c3s2)CC1
    -6.4%	2.5%	2.2%	1.0
> Cc1[nH]n2c(=O)cc(C(C)C)nc2c1-c1ccccc1
    15.0%	7.2%	-1.1%	3.4
> COc1ccc(CNCCC(c2ccc(OC(C)C)cc2)c2ccccc2OC)cc1 (stereo unspecified)
    ?	-4.9%	2.4%	.
> CCCCOc1ccc(Cl)cc1CSc1n[nH]c(C)n1
    8.2%	-13.0%	2.1%	5.1
> CC(CC(=O)N1CCN(C(=O)c2ccccc2)CC1)c1ccccc1 (stereo unspecified)
    0.1%	2.8%	3.9%	.
> N#C/C(=C\c1ccncc1)C(N)=O
    0.9%	-1.2%	0.0%	2.7
> COc1ccc(NC(=O)CSc2nc3[nH]ncc3c(=O)[nH]2)cc1OC
    .	9.5%	-1.1%	.
> Cc1ccc(/C=C(\NC(=O)c2ccccc2)C(=O)NC(Cc2ccccc2)C(=O)O)cc1 (stereo unspecified)
    -4.9%	-5.1%	1.5%	1.6
> CC(=O)Nc1ccc(NC(=O)C(C)OC(=O)c2ccc(C)s2)cc1 (stereo unspecified)
    0.7%	11.3%	2.7%	3.2
> CCN1CCCC1CNCC(=O)Nc1ccc(OC(F)(F)F)cc1 (stereo unspecified)
    -6.2%	7.9%	-3.2%	6.5
> CCCCC(=O)Nc1nc2c(s1)COc1ccccc1-2
    -11.0%	4.2%	3.9%	.
> c1ccc(Cn2ncc3c(N4CCCCC4)ncnc32)cc1
    -20.3%	-3.2%	0.0%	10.5
> CCC(C)(C)C1CCC(=NNS(=O)(=O)c2ccc(C)c([N+](=O)[O-])c2)CC1 (stereo unspecified)
    -7.5%	-1.6%	-1.2%	-4.9
> CC(C)(CO)NC(=O)C(c1ccccc1)c1ccccc1
    2.7%	6.7%	-3.7%	-10.1
> COc1ccc(CC(=O)OCn2nnc3ccccc3c2=O)cc1OC
    -4.6%	6.7%	-5.7%	4.1
> CC1CCN(c2nc3ccc(C(=O)NCCCN4CCCCC4C)cc3s2)CC1 (stereo unspecified)
    -81.0%	27.2%	-4.1%	.
> COc1cc(C(=O)Nc2cccc(C)n2)ccc1OCC(=O)N1CCOCC1
    .	0.4%	-2.6%	.
> CCC(C)NC(=O)Cn1c(=O)n(CCCCCC(=O)Nc2ccccc2)c(=O)c2sccc21 (stereo unspecified)
    -24.5%&-24.6%	5.1%	0.6%	-5.4
> CNNC(=S)NC1CC2CC1C1C=CCC21 (stereo unspecified)
    -8.6%	-5.9%	0.1%	-25.5
> COc1ccc(NC(=O)CN2CCN(S(=O)(=O)c3ccc(C(C)C)cc3)CC2)cc1OC
    14.9%	-0.7%	-0.2%	-5.9
> O=C(c1cc(-c2ccc(F)cc2)on1)N1CCCCCC1
    -55.6%	0.8%	3.2%	.
> COc1ccccc1C1C(C(=O)c2sc(C)nc2C)=C(O)C(=O)N1CCN1CCOCC1 (stereo unspecified)
    -19.0%	-26.1%	?	-1.3
> Cc1ccc(-c2nc(SCC(=O)NCC3CCCO3)c(-c3ccccc3)[nH]2)cc1 (stereo unspecified)
    12.6%	-10.3%	-1.1%	-5.6
> CSc1cccc(NC(=S)N2CCC(N(C)C3CCCCC3)CC2)c1
    -0.8%	1.5%	0.5%	1.0
> CC1CN(C(=S)NC2CCCC2)CC(C)O1 (stereo unspecified)
    0.9%	6.5%	-0.3%	.
> Cc1ccc(NC(=S)N(CCCN2CCOCC2)Cc2ccco2)cc1
    -2.2%	?	?	0.9
> C[C@@H]1NC(=O)c2cc([N+](=O)[O-])cc(F)c2NCCC[C@@H](C(N)=O)NC(=O)[C@H](CC(N)=O)NC1=O
    -3.2%	9.6%	2.8%	4.5
> CC(=O)c1c(C)[nH]c(C(=O)Nc2cccc(C)n2)c1C
    -5.8%	-21.2%	3.7%	.
> COC(=O)c1ccc(NC(=O)CSc2nnc(COc3c(C)cccc3C)o2)cc1
    -1.5%	2.5%	4.9%	2.9
> CC(=O)c1ccc(N2CCN(C(=O)CCS(=O)(=O)c3ccc4c(c3)NC(=O)CS4)CC2)cc1
    0.6%	16.6%	-4.3%	.
> O=C(CN1C(=O)NC2(CCCC2)C1=O)NNC(=O)c1ccc(Br)cc1
    .	-5.1%	-2.6%	.
> Cc1cccc(NC(=S)N(CCCN(C)C)Cc2cc3cc4c(cc3[nH]c2=O)OCO4)c1
    -2.2%	1.5%	0.5%	5.5
> O=C(CSc1nc2ccccc2[nH]1)NC1CCS(=O)(=O)C1 (stereo unspecified)
    -7.9%	-6.2%	-5.9%	-4.9
> CCN(CC)c1ccc(C(=O)NNC(=O)C2CSC3(C)CCC(=O)N23)cc1 (stereo unspecified)
    .	19.5%	4.1%	.
> Cc1nc2ccc(C(=O)N/N=C/c3ccccc3O)cc2[nH]1
    -30.0%	-22.3%	0.5%	.
> COc1ccc(S(=O)(=O)N2CCCCC2)cc1NCC(=O)Nc1ccc(C)cc1
    22.3%	9.2%	-0.5%	-4.9
> CC(=O)c1cccc(-n2nnnc2SCC(=O)Nc2cccc(NC(=O)c3ccco3)c2)c1
    14.9%	1.4%	-2.4%	1.5
> O=C(COC(=O)CNC(=O)C1CCCCC1)Nc1ccccc1OC(F)F
    .	-6.3%	2.4%	.
> C=CCC[C@@H](Cc1ccc(F)cc1)C(=O)OC[C@H](Cc1c[nH]c2ccccc12)NC(=O)[C@H](CC=C)CC(=O)N(CCO)Cc1ccccc1
    .	-1.0%	3.5%	.
> CCN(CC)C(=O)[C@H]1CC(CC(=O)NCc2ccco2)C(=O)N2CCc3c([nH]c4ccccc34)[C@]12C (stereo partly specified)
    .	0.2%	-4.7%	.
> COc1ccc(C(=O)C2CCCN(C(=O)c3cccc(N4CCCC4=O)c3)C2)cc1OC (stereo unspecified)
    -4.8%	-5.9%	-4.7%	.
> CS(=O)(=O)c1ccc2nc(NC(=O)CN3C(=O)C4CC=CCC4C3=O)sc2c1 (stereo unspecified)
    2.2%	-2.7%	-1.2%	-3.1
> COc1ccc(NCc2nnc(SCC#N)n2-c2ccccc2OC)cc1
    1.1%	-5.2%	-0.6%	-3.4
> O=C1C[C@H](c2ccc(O)cc2)Oc2cc(O[C@@H]3O[C@H](CO)[C@@H](O)[C@H](O)[C@H]3O)cc(O[C@@H]3O[C@H](CO)[C@@H](O)[C@H](O)[C@H]3O)c21
    .	16.5%	-6.2%	.
> Cc1ccccc1N(C(=O)Cn1nnc(-c2cccs2)n1)C(C(=O)NCCC(C)C)c1ccco1 (stereo unspecified)
    22.0%	-2.3%	2.5%	-4.7
> O=C(Nc1ccc2c(c1)OCO2)C(c1ccccc1)N1CCN(C(=O)c2ccco2)CC1 (stereo unspecified)
    -2.8%	-16.8%	-1.3%	5.8
> CC(C)(NS(=O)(=O)OCC(Cl)(Cl)Cl)c1ccccc1
    0.2%	5.9%	0.1%	.

Continued.
Every second line gives: miR-21 FLuc	Rango dissoc inh	Rango complex inh	GLA inh pH 4.5
> CCN(C(=O)CN1C=NS(=O)(=O)c2ccccc21)c1ccccc1
    -1.9%	12.3%	1.8%	-4.2
> O=C(c1ccc(COc2ccccc2Cl)o1)N1CCN(Cc2ccc3c(c2)OCO3)CC1
    -3.6%&-0.5%	-9.7%&0.9%	3.8%&0.5%	4.2&-0.6
> CCCCc1cc(=O)oc2cc(C)cc(O)c12
    22.7%	-14.1%	0.9%	9.9
> O=C(Nc1ccccc1C(F)(F)F)c1cc(S(=O)(=O)N2CCC3(CC2)OCCO3)ccc1F
    -2.4%	-8.2%	-4.8%	1.9
> Cc1ncc(CSCC(=O)Nc2cc(C(F)(F)F)ccc2Cl)c(CO)c1O
    2.4%	-16.2%	7.6%	.
> COc1cccc(C(=O)Nc2ccncc2)c1OC
    7.2%	20.9%	2.1%	.
> CCOC(=O)[C@@H]1[C@H]2COc3ccc(Br)cc3[C@H]2N2C(=O)N(c3cccc(F)c3)C(=O)[C@]12C
    8.2%	-15.9%	-5.6%	.
> CC(NC(=O)c1cc(COc2ccccc2)on1)c1nccs1 (stereo unspecified)
    -65.1%	-17.8%	-4.9%	.
> COc1ccc(NC(=O)CSCC(=O)NCc2ccco2)cc1
    .	-19.6%	3.0%	.
> Clc1ccc(CSc2nccn2Cc2ccccc2)cc1
    1.2%	4.5%	-0.5%	-8.9
> Cc1nn(-c2ccccc2)c(Cl)c1C(=O)NCCN(C)C
    -2.4%	6.1%	-3.6%	3.5
> Cc1cccc(S(=O)(=O)c2c(N)n(-c3ccccc3)c3nc4ccccc4nc23)c1
    6.9%	-24.0%	-3.5%	?
> Cc1c(Cl)c(C(F)(F)F)nn1CC(=O)NCc1ccco1
    1.7%	4.7%	5.4%	4.1
> COc1ccc(O)c(/C=N/NC(=S)Nc2cccc(S(=O)(=O)N(C)C)c2)c1
    -0.4%	?	?	3.3
> COc1ccc(C(C(=O)NC2CCCCC2)N(Cc2ccco2)C(=O)c2snc(C(N)=O)c2N)cc1 (stereo unspecified)
    13.9%	-5.5%	?	.
> COc1ccc(NCC(=O)N/N=C/c2c(C)nn(Cc3ccccc3)c2Cl)cc1
    -3.6%	0.8%	-2.3%	-3.1
> COC(=O)c1ccc(CSc2nc3c(c(=O)n2-c2ccccc2)SCC3)o1
    -16.2%	11.1%	?	7.9
> CCOc1cc(CNC2CCCC2)cc(Cl)c1OCc1ccccc1
    29.2%	-4.7%	-0.4%	-9.1
> O=C1CC(N2C(=O)/C(=C/C=C/c3ccccc3)SC2=S)C(=O)N1c1ccccc1 (stereo unspecified)
    -3.3%	0.6%	-2.0%	-5.8
> N#CC1=C(N)Oc2cc(N)ccc2C1c1cccnc1 (stereo unspecified)
    0.7%	?	?	-5.3
> COC(=O)c1c(NC(=O)c2cnccn2)sc2c1CCC2
    -9.9%	0.5%	2.1%	4.8
> O=C(NCCCn1ccnc1)c1ccc(Br)s1
    -4.5%	3.8%	0.7%	.
> O=C(c1ccc(-c2cc(Cl)ccc2Cl)o1)N1CCOCC1
    -87.3%	-12.8%	2.8%	0.0
> Cc1cccc(NC(=O)CN2CCN(C(=O)C3CCN(C(=O)/C=C/c4ccccc4)CC3)CC2)c1C
    .	30.3%	-1.5%	.
> COc1ccc(NC(=O)CN2C(=O)C(c3ccccc3)=NC23CCCCCC3)cc1
    -6.4%	1.4%	0.2%	-3.9
> N#CC1(NC(=O)COC(=O)c2cc([N+](=O)[O-])ccc2N2CCOCC2)CCCCC1
    .	-2.3%	-4.2%	.
> CC(=O)Nc1ccc(NC(=O)CCn2nnc3ccccc32)cc1
    -4.3%	-14.6%	0.6%	7.2
> CCO[C@H]1OC(C(=O)NCc2ccccc2)=C[C@@H](c2ccc3c(c2)OCO3)[C@@H]1CCCO
    -2.8%	?	1.3%	3.3
> COC(=O)c1ccc(OCCn2cnc3ccccc3c2=O)cc1
    -22.4%	0.1%	1.2%	-0.4
> Cc1cccc(NS(=O)(=O)c2c(C)nc3scc(C)n3c2=O)c1
    3.5%	1.0%	1.3%	.
> Cc1cc(C)n(CC(O)COc2ccc3ccccc3c2)n1 (stereo unspecified)
    -49.4%	1.2%	1.4%	-8.7
> O=C(Nc1ccccc1C(=O)Nc1ccc(Br)cn1)c1cccc([N+](=O)[O-])c1
    2.3%	-3.3%	0.7%	.
> O=[N+]([O-])/C(C(=C(Cl)Cl)N1CCOCC1)=C1\NCCO1
    -0.8%	9.1%	-0.1%	1.5
